# Menin-MLL FL inh: menin-MLL binding inhibition, fluorescein peptide. AID 1766. FP activity change, % at 61.4 µM. Fluorescence polarization, fluorescein-MLL peptide displacement from menin. 290,000 tested, under 10 active; inconclusive = falling polarisation curve, or a change in total fluorescence; inactive = total fluorescence flat and polarisation flat or rising; no compound was filed as active; the % refers to the polarisation; negative = inhibition;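 also: % of control where 0% means no effect; inhibitors lower the polarisation; unlabelled MLL peptide was the positive control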
# TRPML1 ag: human mucolipin-1 channel agonism | Q9GZU1 | TRPML1-expressing cells, Ca2+ dye fluorescence, FDSS; host cell line not named in the record; reference of the full effect not given here | activation, % (no concentration beside the values) | 410,000 compounds, 0.12% hits | AID 624414; in the data active = activation above about 50%; inconclusive = about 30% to 50%; inactive = below about 30%; also: 0% is about no effect; the text of the record puts the active cut at 80%
#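 Tetracycline-induced TRPML1-DL cells are seeded and incubated overnight before loading with a no-wash Ca2+ dye and quencher. Agonist activity is taken from the 110 s fluorescence read following compound pin-transfer on an FDSS, before EC80 54-4 challenge.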
# TRPML1 inh: human mucolipin-1 channel inhibition | Q9GZU1 | TRPML1-inducible cells, Ca2+ dye fluorescence, FDSS; active compounds read low; inhibition of EC80 agonist-evoked calcium signal | activity change, negative = inhibition, % (no concentration beside the values) | 390,000 compounds, 0.02% hits | AID 624415; in the data active means activity change below about -50%; inconclusive means about -30% to -50%; inactive means above about -30%;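 also: stimulus is agonist 54-4 at its EC80 concentration; % is scaled to controls: 0 for no effect and ±100 for the full control effect; compound concentration not given in the record; the text of the record puts the active cut at -80%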
#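 Calcium fluorescence in TRPML1-DL cells induced overnight with Tet: a 110 s read after compound pin addition, then a 110 s antagonist read after challenge with 54-4 at 4 uM final (EC80).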
# Sfp PPTase inh: Sfp phosphopantetheinyl transferase inhibition; Q9F4F7; Biochemical Sfp PPTase activity, qHTS; 310,000 compounds, 3.5% hits; Potency, µM, for inactives: max response, negative = inhibition, hits mostly inhibitors; active = well fitted inhibition curve with a large enough effect; inconclusive = small, poorly fitted or top-dose-only effect, or another doubt; inactive = no such curve, though single readings can be large or run the other way;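 also: the enzyme is Sfp with the accession as filed and its product quenches rhodamine fluorescence; potency is read from the fitted curve at half-maximal effect; 0% = enzyme reaction without inhibitor and -100% = no enzyme wells; top concentration of the series not given in the record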
#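 Fluorescence-quenching assay: 15 nM Sfp-PPTase preincubated 15 min at room temperature with compound, then 5 uM rhodamine-CoA and 12.5 uM BHQ-2-labelled YbbR peptide added. Fluorescence (ex 525/em 598 nm) read at start and after 30 min; difference gives rate.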
# TRPV1 potentiator: potentiators of human vanilloid receptor 1 (TRPV1) | TRPV1-expressing cells, Fluo-8 calcium influx, capsaicin EC20 potentiation; host cell line not named in the record; control for the full effect not named in the record | potentiation, % at 8.33 µM | Q8NER1 | AID 540277 | 320,000 compounds, 0.02% hits; active means potentiation above 80%; inconclusive means 30% to 80%; inactive means below 30%; also: 0% is about no effect
# Target sequence (Q8NER1 whole entry, looked up): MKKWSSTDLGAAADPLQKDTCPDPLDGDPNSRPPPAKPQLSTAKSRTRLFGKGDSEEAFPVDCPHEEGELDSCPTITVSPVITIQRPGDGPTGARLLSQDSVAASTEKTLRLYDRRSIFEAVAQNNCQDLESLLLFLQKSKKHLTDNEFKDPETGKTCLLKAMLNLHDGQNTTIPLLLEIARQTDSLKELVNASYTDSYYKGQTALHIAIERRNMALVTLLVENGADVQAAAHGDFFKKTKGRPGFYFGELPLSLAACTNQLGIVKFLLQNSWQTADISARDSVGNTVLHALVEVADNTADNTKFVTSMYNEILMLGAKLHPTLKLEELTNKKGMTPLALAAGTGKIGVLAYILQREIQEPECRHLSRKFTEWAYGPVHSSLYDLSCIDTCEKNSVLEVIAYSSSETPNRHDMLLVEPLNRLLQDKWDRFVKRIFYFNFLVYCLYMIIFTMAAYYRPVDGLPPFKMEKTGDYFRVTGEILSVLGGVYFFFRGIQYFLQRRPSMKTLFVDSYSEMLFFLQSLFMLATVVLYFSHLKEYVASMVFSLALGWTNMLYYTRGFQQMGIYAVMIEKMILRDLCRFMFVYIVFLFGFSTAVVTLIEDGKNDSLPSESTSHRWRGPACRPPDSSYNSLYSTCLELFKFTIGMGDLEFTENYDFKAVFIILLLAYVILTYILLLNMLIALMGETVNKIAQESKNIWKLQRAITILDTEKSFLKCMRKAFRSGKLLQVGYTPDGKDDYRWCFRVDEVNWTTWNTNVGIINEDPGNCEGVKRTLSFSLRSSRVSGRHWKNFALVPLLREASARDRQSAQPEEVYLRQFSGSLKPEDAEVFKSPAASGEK
#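 TRPV1-expressing cells were cultured overnight at 35.5C and loaded with Fluo-8 calcium dye for 40 to 90 min at room temperature. After a 10 s baseline, compound was added and calcium influx was read kinetically for 3 min (ex 480/em 520 nm).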
# ClpP mod: qHTS Assay for Activators of ClpP; ATP-dependent Clp protease proteolytic subunit (Bacillus subtilis (strain 168)), P80244; purified B. subtilis ClpP, FRET peptide cleavage, 20 min; Potency, µM (doses to about 57.5 µM), inactives show at the highest dose activity change, negative = active; 340,000 compounds, 1.9% hits; AID 651965, 2013; active = well fitted falling curve with a large enough effect; inconclusive = small, poorly fitted or top-dose-only effect; inactive = no such curve, though single readings can be large or run the other way; also: potency is read from the fitted curve at half-maximal effect; the source files actives as falling curves though it sought activators and does not explain the sign; nearly all actives have a fitted effect of over 65% in size; many hits overshoot -100%
# Target sequence (P80244 whole entry, looked up): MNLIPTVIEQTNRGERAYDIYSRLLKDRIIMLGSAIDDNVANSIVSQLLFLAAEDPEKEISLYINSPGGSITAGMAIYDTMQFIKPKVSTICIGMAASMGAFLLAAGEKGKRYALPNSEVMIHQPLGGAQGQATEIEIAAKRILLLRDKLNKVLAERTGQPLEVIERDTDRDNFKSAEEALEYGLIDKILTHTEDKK
#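 FRET quenching reversal measured ClpP activation: 10 microg/mL B. subtilis ClpP at pH 8 with the FRET-FV decapeptide, read at 430 nm after 320 nm excitation. The 20-min minus 0-min signal was scaled between DMSO/no-enzyme wells and ADEP (5.8 microM final).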
# PINK1 modulator: PINK1 expression modulation | PINK1 immunofluorescence, high-content cytometry, 24 h | Potency, µM (top dose mostly 76.6 µM), for inactives: at the top dose activation (PINK1 increase), hits mostly activators | 410,000 compounds, 0.2% hits | AID 624263; active = well fitted activation curve with a large enough effect; inconclusive = small, poorly fitted or top-dose-only effect; inactive = flat fitted curve, though single readings scatter; cell line not stated here;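 also: potency is read from the fitted curve at half-maximal effect; % of control where 0% means no effect; nearly all actives have a fitted effect of over 65% in size; a mitochondrial uncoupler was the plate control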
#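 Readout is PINK1 immunofluorescence, quantified alongside mitochondrial, cell and nuclear markers by laser-scanning microplate cytometry. Cells from a stable line were exposed to compound titrations (5 concentrations) for 24 hours, with CCCP controls.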
# Active calls of the source: *; ? = inconclusive; . = no result given; [ ] = dose if it differs, or a comment. The order is random; overall some 4.4% were active at least once.
item	structure	Menin-MLL FL inh	TRPML1 ag	TRPML1 inh	Sfp PPTase inh	TRPV1 potentiator	ClpP mod	PINK1 modulator
1	O=C(CN1C(=O)CSc2ccc(S(=O)(=O)N3CCCC3)cc21)NCc1ccc(F)cc1Cl	.	1.7	-24	.	.	-1.3%	-2.3%
2	O=C(O)c1ccc(CSc2nc3ccc(N4C(=O)C5C6C=CC(C6)C5C4=O)cc3s2)cc1 (configuration not stated)	0.3	0.3	33	-25%	-2	0.9%	-0.9%
3	COC(=O)c1c(NC(=O)Cc2coc3cc(C)cc(C)c23)sc2c1CCC2	.	0.3	-6	.	.	0.3%	-1.1%
4	CN1CCN(C(=O)C2=NOC3(C2)C(=O)Nc2ccccc23)CC1 (configuration not stated)	.	0.1	.	.	.	-1.1%	-1.1%
5	O=C(NNc1c2ccccc2nc2ccccc12)c1ccccc1Cl	3.3	0.1	2	7%	-2	0.6%	13%
6	N/C(=N\OC(=O)c1cccs1)c1ccc(Cl)cc1	4.1	0.8	-3	12%	?	-1.5%	3.7%
7	Cn1nc(-c2ccccc2F)c2cc(C(=O)N3CCN(C(=O)c4ccco4)CC3)sc21	.	2.8	-16	.	.	-11%	-0.7%
8	COC(=O)c1ccc2c(=O)n3c(nc2c1)SCC(c1ccccc1)=N3	?	0.0	-6	5%	.	-3.2%	-0.2%
9	CCCc1cc(=O)[nH]c(SCC(=O)c2cc(C)n(CC(F)(F)F)c2C)n1	-2.7	-0.8	-6	8%	7	.	1.4%
10	O=C1[C@@H](Oc2ccccc2)[C@@H](c2ccncc2)N1c1ccncc1	.	-0.7	15	.	.	0.7%	1.9%
11	Cn1c(=O)c2c(-c3ccccc3)n(CCCO)cc2n(C)c1=O	.	-0.2	-6	.	.	-11%	-1.4%
12	Nc1ccc(Br)c2c1C(=O)c1ccccc1C2=O	?	1.4	-14	50µM*	10	1.0%	1.8%
13	CC(=O)Nc1ccc(Nc2nnc(-c3ccc(C)c(S(=O)(=O)NCCO)c3)c3ccccc23)cc1	0.4	0.4	-5	2%	1	-1.2%	0.1%
14	Cc1ccc(N(CC(=O)Nc2ccc(F)cc2F)S(=O)(=O)c2cccs2)cc1	.	2.5	12	.	.	-3.5%	-0.1%
15	N#CSCC(=O)c1cccc2ccccc12	-0.3	8.3	-3	-23%	-5	-12%	1.4%
16	Cc1ccc(NC(=O)CSCC(=O)N2CCN(Cc3ccc4c(c3)OCO4)CC2)cc1	.	1.7	3	1%	13	2.0%	0.9%
17	Cn1cc(CC(=O)NCCN2CCOCC2)c2ccccc21	-1.4	0.1	-4	19%	-2	-16%	9.6%
18	C/C(=N/NC(=O)c1ccccn1)c1ccco1	5.5	-0.8	0	?	5	-0.2%	0.2%[38.3 µM]
19	O=C(NC(=O)N1CCN(C(c2ccccc2)c2ccccc2)CC1)c1ccccc1	1.3	1.0	-1	7%	-21	.	1.2%
20	COc1ccc(CNCC(O)(c2ccccc2)c2ccccc2)cc1OC	3.2	-0.5	-3	8%	-5	.	3.3%
21	C=CCn1c(SCn2nnc3ccccc3c2=O)nnc1C1CCCCC1	0.9	0.2	17	7%	7	3.8%	1.8%
22	O=C(CN1CCN(Cc2ccc(F)cc2Cl)C1=O)NCCc1ccccc1	-0.5	-0.8	-2	-10%	-12	1.3%	3.3%
23	N#Cc1ccccc1OCC(=O)Nc1ccc(S(=O)(=O)N2CCOCC2)cc1	.	1.1	14	.	.	.	-0.5%
24	CNC(=S)N1N=C(c2ccccc2)CC1c1ccccc1Cl (configuration not stated)	6.0	0.1	2	-13%	12	.	5.2%
25	O=S(=O)(Nc1nc2n(n1)C(c1ccc(F)cc1)C=C(c1ccccc1)N2)c1ccc(Cl)cc1 (configuration not stated)	.	1.3	-7	.	.	4.8%	0.8%
26	OCCC1CN(Cc2ccccn2)CCN1C1CCCC1 (configuration not stated)	1.4	0.7	-15	-10%	9	.	-0.4%
27	Cc1cccc(C)c1Nc1c(-c2ccc(O)cc2)nc2sccn12	.	-0.7	3	.	.	-0.7%	-0.8%
28	COc1ccc2nc3cc(Cl)ccc3c(C#N)c2c1	-17	1.3	27	6%	2	.	6.2%
29	COc1ccc(CCCNC(=O)C2(C)Cc3c(-c4ccc5c(c4)OCO5)ccnc3O2)cc1 (configuration not stated)	.	0.3	.	.	.	4.8%	0.2%
30	COc1ccc(CN2C(=O)c3ccccc3C2c2nnnn2-c2c(C)cccc2C)cc1OC (configuration not stated)	.	-1.0	.	.	.	-3.0%	2.2%
31	CN(CC(=O)Nc1ccc(OC(F)(F)F)cc1)C(=O)c1ccccc1SCC(=O)N1CCCC1	.	0.9	-6	.	.	0.7%	1.0%
32	O=C(CN1CCN(C(=O)c2ccccc2)CC1)Nc1cc(S(=O)(=O)N2CCCC2)ccc1Cl	.	0.5	-1	.	-4	0.3%	2.8%
33	Cc1ccc(N(C(=O)c2ccc(S(=O)(=O)N3CCOCC3)cc2)C2C=CS(=O)(=O)C2)cc1 (configuration not stated)	1.6	1.0	-2	?	0	-2.4%	12%[38.3 µM]
34	COC(=O)c1ccc(CN(c2ccccc2Cl)S(C)(=O)=O)cc1	0.2	3.6	3	15%	1	.	-3.7%
35	COc1ccc2sc(-c3ccc(S(C)(=O)=O)cc3)c(-c3ccc(C(N)=O)cc3)c2c1	.	-0.6	1	.	.	3.8%	7.1%
36	CCc1ccc(-c2cc(C)no2)cc1S(=O)(=O)N1CCCN(Cc2ccc(F)cc2)C1	-3.5	-0.4	8	12%	-12	-1.9%	5.4%
37	COc1ccc(-c2nc(N)sc2C2(O)C(=O)Nc3c(Br)cc(F)cc32)cc1OC (configuration not stated)	1.6	1.2	-23	8%	-8	.	0.2%
38	O=C(NCCCCc1ccccc1)c1ccc(F)cc1	.	-0.8	0	.	.	.	0.8%
39	COCCCN1C(=O)C(CC(=O)NCCN2CCOCC2)CC(C(=O)N(C)C)=C1C (configuration not stated)	.	-0.4	3	.	.	0.6%	0.5%
40	COc1ccc(N2C(=O)CC(Sc3n[nH]c(-c4cccc(C)c4)n3)C2=O)cc1 (configuration not stated)	4.4	0.1	-6	3.2µM*	-1	.	-0.2%
41	COc1cc(O)oc1C=Nc1ccc(Cl)cc1Cl	-0.3	0.7	11	-11%	24	1.2%	-2.1%
42	N#CCCNCC1(c2ccccc2)CCCC1	-0.3	1.2	-2	-8%	-32	0.1%	-0.9%
43	CC(=O)Nc1sc(/C(C#N)=C\c2cccc(Cl)c2)nc1-c1ccc(C)cc1	?	77*	-23	?	14	0.7%	1.8%
44	Cc1ccc(C(=O)Nc2ccccc2)cc1S(=O)(=O)N1CCN(C)CC1	-1.3	0.2	-8	7%	-10	-0.7%	2.5%
45	COc1ccc(C(CNc2ccc(S(=O)(=O)N3CCCC3)cc2[N+](=O)[O-])N2CCCC2)cc1 (configuration not stated)	-0.1	-0.1	30	4%	-5	1.1%	0.5%
46	Cc1cccc(N(C)S(=O)(=O)c2c(C)[nH]c(C)c2C(=O)N2CCCC2)c1	1.9	-0.5	2	11%	11	0.4%	-0.6%
47	Cc1cc(N/N=C\c2ccccc2)nc(-c2ccccc2O)n1	2.4	0.1	-13	?	-10	-1.7%	?
48	O=C(NCc1ccncc1)Nc1ccc(Cl)cc1Cl	5.1	-0.4	39	9%	-30	3.2%	0.7%
49	CC1(C)Cc2nc(-c3ccccc3)nc(NNC(=O)c3ccco3)c2CO1	0.4	-0.7	-1	1%	-1	-1.8%	0.0%
50	O=C(O)c1ccccc1NS(=O)(=O)c1ccc2c(c1)OCCO2	-0.1	1.7	-8	-4%	-1	.	2.4%

# Remaining list, next part
item	structure	Menin-MLL FL inh	TRPML1 ag	TRPML1 inh	Sfp PPTase inh	TRPV1 potentiator	ClpP mod	PINK1 modulator
51	CCC1NC(=O)c2cccnc2-n2c1nc1ccc(F)cc1c2=O (configuration not stated)	.	0.0	-2	.	.	-1.9%	1.6%
52	Cc1ccc(O)c(C(=O)c2cnc3c(c2)c(C)nn3C)c1	-3.2	1.7	17	-4%	-13	.	0.8%
53	Cn1c(=O)n(C)c2cc(CNCc3ccc(C(=O)O)cc3)ccc21	.	-0.9	-19	.	.	-0.7%	3.3%
54	COc1ccc(-c2c(C)nn3c(C(F)(F)F)cc(-c4ccccc4)nc23)cc1OC	.	2.3	15	.	.	0.4%	-0.2%
55	C=CCn1c(SCC(=O)Nc2cc(C)on2)nc2c([nH]c3ccccc32)c1=O	.	-0.1	0	0%	2	-6.9%	21%
56	COc1ccc(-n2nnnc2SCC(=O)N2C(C)CCCC2C)c(OC)c1 (configuration not stated)	1.9	0.3	8	15%	-17	0.7%	.
57	Cc1ccc2c(Cl)c(C(=O)Nc3ccc4c(c3)OCO4)sc2c1	.	-0.5	-2	-2%	-35	6.3%	1.8%
58	O=C(NC1CCCCC1)C(c1ccco1)N(Cc1ccco1)C(=O)c1ccco1 (configuration not stated)	2.0	-0.3	-14	3%	1	1.0%	24%[38.3 µM]
59	Cc1c(Cl)cccc1Nc1nc(N)nc(CSC(=S)N2CCOCC2)n1	0.2	2.1	-22	-1%	-16	.	5.2%
60	CC(Sc1ccccc1)C(=O)NCC(c1ccco1)N1CCCCC1 (configuration not stated)	.	-0.6	-6	.	6	-0.7%	0.1%
61	CC(=O)Nc1cc2c(cc1C(=O)c1ccc(C)cc1)OCCO2	-0.8	0.2	-4	-4%	-12	-3.5%	-1.2%
62	CC(C)(c1ccccc1)c1ccc(OCCn2cnc3ccccc3c2=O)cc1	0.9	2.2	14	-7%	11	-0.3%	0.8%
63	CCOc1ccc(N2C(=O)CC(Cc3ccccc3OC)C2=O)cc1 (configuration not stated)	-1.8	0.0	35	19%	6	-4.5%	-0.4%
64	CCCCCC#CCN1CCN(C23CC4CC(CC(C4)C2)C3)CC1	.	-0.8	8	.	-1	1.8%	2.5%
65	O=C(O)COc1ccccc1/C=N/NC(=O)CN1CCN(Cc2ccc(Cl)cc2)CC1	1.4	0.1	-16	13%	-10	-1.5%	-1.5%
66	Cn1cnnc1Sc1ccc(CN2CCN(C3CCCC3)C(CCO)C2)o1 (configuration not stated)	-0.4	0.0	15	-3%	3	-1.6%	0.1%
67	O=C(O)COc1cccc2nsnc12	-1.3	-0.1	9	-6%	-8	-3.6%	-1.2%

# Source: PubChem BioAssay
